# ABCB1 block – human ABCB1 inhibition, ABCG2 as counter-screen. CCRF-Adr cells, JC-1 efflux, flow cytometry. 0.067% of 190,000 active. P08183. inhibition, % at 6.6 µM; in the data active = inhibition above about 40%;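 note: 0% = vehicle and 100% = reference inhibitor; higher value means more JC-1 retained so stronger ABCB1 efflux block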
# Rab7 wt modul – alters GTP binding to wildtype dog Rab7 | GST-Rab7 beads, fluorescent GTP binding, flow cytometry; actives lie on both sides; untreated = 100%, excess cold GTP = 0% | GTP binding activity (percent of control), % at 10 µM | 0.055% of 190,000 active | AID 758;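 active = fluorescent GTP binding to Rab7 beads changed by at least 20 points from the 100% baseline, either direction, mostly lower; inconclusive = compound itself probably fluorescent, or too few beads counted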;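 note: median green fluorescence of bound Bodipy-FL-GTP per Rab7 bead population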
# Avidin fluor – avidin bead compound fluorescence profile. Avidin beads, compound fluorescence 488/530 nm, flow cytometry; active compounds read high. fluorescence (KMESF) at 10 µM. 0.38% of 220,000 active. AID 1775; in the data active = fluorescence above about 47; note: inactives centre near 10
# Rab2A wt mod – changes GTP binding to wildtype dog Rab2A, up or down | P61105 | GST-Rab2 wt beads, Bodipy-GTP binding, flow cytometry | GTP binding activity, % at 10 µM | 0.19% of 190,000 active | AID 760;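 active = GTP binding activity at least 20 points away from 100%, either lowered or raised; inconclusive = signal likely due to the compound's own green fluorescence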;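 note: 0% = beads with excess unlabeled GTP and 100% = no-compound control corrected for plate trend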
# Pf gamet viab – P. falciparum stage V gametocyte viability inhibition. inhibition, % at 10.9 µM. 0.065% of 150,000 active. AID 743093. P. falciparum stage V gametocytes, ATP luminescence, 24 h;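 active = inhibition above the mean plus 3 SD of compounds within the control limits, set per campaign, cut at about 38% in these data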;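 note: 0% = DMSO wells and 100% = medium only without gametocytes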
# Cdc42 wt – changes GTP binding to wildtype human Cdc42. percent activity (GTP binding), % at 10 µM. GST-Cdc42 beads, Bodipy-GTP binding, flow cytometry; actives lie on both sides. 0.2% of 190,000 active. P60953;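 active = percent activity GTP binding at least 20 points away from the 100% baseline, either down as inhibitor or up as activator; inconclusive = compound flagged as likely green fluorescent from well-wide comparison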;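 note: median bead fluorescence of bound Bodipy-FL-GTP at 100 nM; 0% = excess unlabeled GTP control and 100% = no compound control; below 100% means less GTP binding so inhibitor and above means activator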
# Target sequence (P60953 whole entry, looked up): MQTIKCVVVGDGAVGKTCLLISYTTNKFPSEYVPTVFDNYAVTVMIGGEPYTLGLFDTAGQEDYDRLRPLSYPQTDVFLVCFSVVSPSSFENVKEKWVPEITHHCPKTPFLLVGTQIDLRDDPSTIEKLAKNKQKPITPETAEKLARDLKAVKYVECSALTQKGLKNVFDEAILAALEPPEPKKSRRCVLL
# HRas wt GTP – changes GTP binding to wildtype human HRas; P01112; GST-Ras wt beads, Bodipy-FL-GTP binding, flow cytometry; actives lie on both sides; GTP binding activity, % at 10 µM; 0.14% of 190,000 active;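 active = GTP binding activity at least 20% away from the 100% baseline, either lowered as inhibitor or raised as activator; inconclusive = flagged as likely green fluorescent, judged across all proteins in the well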;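 note: 0% = unlabeled GTP competition control and 100% = no-compound control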
# Target sequence (P01112 whole entry, looked up): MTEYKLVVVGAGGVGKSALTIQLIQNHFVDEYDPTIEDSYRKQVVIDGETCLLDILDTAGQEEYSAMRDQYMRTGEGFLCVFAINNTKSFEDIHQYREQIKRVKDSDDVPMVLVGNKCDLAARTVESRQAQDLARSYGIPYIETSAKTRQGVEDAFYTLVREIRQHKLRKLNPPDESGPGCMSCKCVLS
# Rac1 mut GTP – alters GTP binding to activated mutant human Rac1. AID 764. 0.11% of 190,000 active. percent activity (GTP binding), % at 10 µM. GST-Rac1 activated beads, fluorescent GTP binding, flow cytometry; actives lie on both sides; 100% means binding = to untreated wells;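 active = GTP binding at least 20 percentage points away from the 100% baseline, in either direction, so actives lie on both sides; inconclusive = Compound likely fluorescent itself, or too few beads counted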
# ABCG2 block – human ABCG2 inhibition, ABCB1 as counter-screen; Q9UNQ0; IgMXP3 cells, JC-1 efflux, flow cytometry; inhibition, % at 6.6 µM; 0.1% of 190,000 active;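 active = inhibition above 80%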;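 note: 0% = DMSO and 100% = nicardipine control wells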
# Target sequence (Q9UNQ0 whole entry, looked up): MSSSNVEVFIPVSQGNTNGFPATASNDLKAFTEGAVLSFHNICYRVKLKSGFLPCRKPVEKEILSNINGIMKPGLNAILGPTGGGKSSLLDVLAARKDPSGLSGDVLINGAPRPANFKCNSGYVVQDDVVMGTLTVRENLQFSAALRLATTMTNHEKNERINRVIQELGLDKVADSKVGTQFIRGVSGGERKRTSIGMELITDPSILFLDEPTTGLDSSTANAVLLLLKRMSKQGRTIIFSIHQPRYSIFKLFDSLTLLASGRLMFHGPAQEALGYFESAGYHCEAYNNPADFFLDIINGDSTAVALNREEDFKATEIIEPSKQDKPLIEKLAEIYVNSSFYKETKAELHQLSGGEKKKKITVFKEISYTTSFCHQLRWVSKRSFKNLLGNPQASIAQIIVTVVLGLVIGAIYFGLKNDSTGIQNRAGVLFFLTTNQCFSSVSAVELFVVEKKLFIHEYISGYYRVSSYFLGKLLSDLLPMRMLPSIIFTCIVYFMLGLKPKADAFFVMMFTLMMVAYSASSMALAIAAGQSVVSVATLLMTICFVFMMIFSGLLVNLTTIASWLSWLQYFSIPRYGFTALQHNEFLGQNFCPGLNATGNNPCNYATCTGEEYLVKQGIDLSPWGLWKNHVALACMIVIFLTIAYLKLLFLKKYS
#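 material = IgMXP3 (ABCG2) plus far-red-tagged CCRF-Adr (ABCB1) cells | amount = 3 million cells/mL, equal mix of both lines | also added = JC-1 transporter substrate | dosing = one concentration, 6.6 µM final | schedule = 10 min at 25 °C | measured by = flow cytometric JC-1 green MFI at 530 nm | read-out basis = percent efflux inhibition, scaled nicardipine 100% to DMSO 0%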
# Rac1 wt modul – modulators of human Rac1 wildtype GTP binding | GST-Rac1 beads, fluorescent GTP binding, flow cytometry; actives lie on both sides; 0 = cold GTP competed, 100 = untreated | 0.27% of 190,000 active | GTP binding activity (% of control), % at 10 µM | AID 757 | P63000;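 active = GTP binding activity at least 20 points away from the 100% control level, either lower or higher; inconclusive = compound flagged as likely green fluorescent, judged across all proteins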
# The depositor's hits bear a star; ? = inconclusive; . = not tested or not shown.
SMILES,ABCB1 block,Rab7 wt modul,Avidin fluor,Rab2A wt mod,Pf gamet viab,Cdc42 wt,HRas wt GTP,Rac1 mut GTP,ABCG2 block,Rac1 wt modul
Cc1ccc(NC2=C(Cl)C(=O)OC2OC(=O)c2ccc(C)cc2)cc1 (stereo not given),2.1,109.0,5,102.0,-52.2,95.0,100.0,96.0,10.5,101.0
CC1=C(C(=O)Nc2ccccc2)C(c2cccnc2)n2ncnc2N1 (stereo not given),0.1,102.0,13,99.0,2.9,99.0,97.0,97.0,-3.0,109.0
CSc1nc2ccc3nc(NC(=O)c4ccc(C)cc4)sc3c2s1,-0.8,100.0,5,104.0,.,103.0,100.0,102.0,-2.0,103.0
Nn1c(SCC(=O)NC(=O)NCc2ccco2)nnc1-c1ccc(OC(F)F)cc1,0.1,102.0,7,99.0,-18.0,104.0,101.0,99.0,0.5,109.0
CCOCC(=O)Nc1cc(C(=O)NCCC(C)C)ccc1Cl,0.5,104.0,13,99.0,.,97.0,101.0,97.0,5.7,99.0
CC1(C)Cc2ccccc2C(/C(=N/O)C(N)=O)=N1,0.4,100.0,12,98.0,.,102.0,100.0,98.0,4.0,105.0
CN(C)S(=O)(=O)c1cccc(NC(=O)CSc2nc3ccccc3n2-c2ccccc2)c1,1.2,104.0,13,100.0,0.9,101.0,100.0,99.0,1.5,103.0
CCn1c2ccccc2c2cc(NC(=O)COC(=O)c3ccccc3O)ccc21,0.3,109.0,9,101.0,-21.3,100.0,101.0,96.0,2.1,100.0
CCc1ccc(NCc2cc3c(C)nn(-c4ccccc4)c3[nH]c2=O)cc1,0.5,99.0,14,98.0,.,97.0,98.0,96.0,3.0,102.0
C=CCNc1nc(N(c2ccccc2)c2ccccc2)nc(-n2ccnc2)n1,0.5,96.0,6,101.0,-30.7,101.0,99.0,98.0,4.7,106.0
Cn1nc([N+](=O)[O-])c2c(-c3nc4ccccc4s3)c(N)n(C3CCCCC3)c2c1=O,0.2,103.0,9,105.0,10.1,106.0,103.0,101.0,1.6,110.0
O=C(NCc1ccccn1)C1COc2ccccc2O1 (stereo not given),1.9,98.0,34,104.0,7.8,104.0,102.0,99.0,25.4,108.0
COCCn1nnnc1C(c1cc2cc(C)ccc2[nH]c1=O)N1CCc2ccccc21 (stereo not given),1.0,95.0,34,100.0,.,98.0,100.0,101.0,5.9,103.0
O=C(Nc1nnc(SCc2ccc(F)cc2)s1)c1ccc2ncsc2c1,-0.2,99.0,12,95.0,9.0,96.0,99.0,95.0,0.7,98.0
CCc1c(O)cc(=O)n(-c2ccccc2)c1-c1ccccc1,0.3,95.0,9,94.0,-22.0,89.0,93.0,92.0,-0.8,94.0
O=C(Cn1nc(-c2ccccc2)nc1-c1ccccc1)OC1CCCCC1,0.4,95.0,6,97.0,24.5,97.0,98.0,95.0,1.2,99.0
CC(=O)NS(=O)(=O)c1cccnc1Nc1cccc(Cl)c1C,0.5,101.0,7,102.0,-17.6,101.0,100.0,99.0,0.4,102.0
COc1ccccc1NC(=O)C(=O)N(c1cccnc1)C(C(=O)NC(C)(C)C)c1ccccc1F (stereo not given),0.2,?,9,?,6.9,?,?,?,2.3,?
CCc1ccc2nc(NC(=O)c3ccc4c(=O)[nH]c(CN5CCOCC5)nc4c3)sc2c1,-0.5,101.0,5,98.0,.,105.0,100.0,100.0,-1.7,105.0
Nc1c(C(=O)Nc2ccccc2F)sc2nc(-c3ccco3)ccc12,-0.2,96.0,3,94.0,.,96.0,96.0,94.0,1.9,99.0
Cc1ccc(-n2nnnc2SCC(=O)Nc2ccc3c(c2)COC3=O)cc1C,1.1,105.0,14,104.0,22.9,104.0,101.0,100.0,12.2,92.0
CC1=C(C(=O)OCC2CCCO2)C(c2ccccc2OC(C)C)C2=C(CC(c3ccco3)CC2=O)N1 (stereo not given),1.9,97.0,6,97.0,-14.4,95.0,97.0,95.0,5.5,96.0
c1ccc(C(c2ccccc2)N2CCN(Cc3nnnn3C3CCCC3)CC2)cc1,0.5,98.0,14,108.0,-20.2,107.0,107.0,102.0,1.4,106.0
CCOC(=O)c1ccccc1NC(=O)c1cccc([N+](=O)[O-])c1,0.9,103.0,9,99.0,.,94.0,96.0,93.0,21.0,98.0
C/C(=N\NC(=O)c1ccc(NS(=O)(=O)c2cccs2)cc1)c1cccs1,0.4,99.0,10,97.0,11.3,95.0,96.0,95.0,2.9,98.0
O=C1CCCC(=O)C1CS(=O)(=O)c1ccccc1,-1.4,103.0,8,98.0,38.7*,96.0,99.0,94.0,-5.0,100.0
Cc1cccc(NC(=O)CSc2nc(C)c(Cc3ccccc3)c(=O)[nH]2)c1,-0.2,92.0,13,90.0,-8.3,93.0,92.0,89.0,0.2,93.0
O=C(Nc1ccncc1NC(=O)c1cccc([N+](=O)[O-])c1)c1cccc([N+](=O)[O-])c1,0.6,103.0,12,96.0,-20.9,97.0,98.0,97.0,8.2,101.0
COC(=O)c1ccc2c(c1)C(=O)/C(=C/c1ccc(O)cc1)O2,0.3,99.0,1,98.0,.,98.0,98.0,99.0,4.4,98.0
O=C(NCCNC(=O)c1cccs1)c1ccco1,0.2,96.0,7,98.0,-2.9,100.0,98.0,98.0,0.7,98.0
COCc1cc(C)nc(N/N=C/c2ccc(-c3ccc(Cl)cc3[N+](=O)[O-])o2)c1C#N,0.8,95.0,11,95.0,5.6,97.0,94.0,95.0,8.5,98.0
O=C(/C=C/NNC(=O)c1cccc(Br)c1)c1ccccc1,0.3,96.0,8,97.0,.,100.0,98.0,99.0,0.0,100.0
COCC(C)Nc1ncnc2c1cnn2-c1ccc(Cl)cc1 (stereo not given),0.7,97.0,22,95.0,-44.0,102.0,97.0,100.0,7.8,101.0
CCOc1ccc(C(=O)/C=C/Nc2ccc(S(=O)(=O)N=C(N)N)cc2)cc1,-0.9,104.0,6,103.0,20.8,104.0,103.0,100.0,-2.5,105.0
NS(=O)(=O)c1cccc(NS(=O)(=O)c2cccc(C(F)(F)F)c2)c1,.,.,7,.,18.5,.,.,.,.,.
O=[N+]([O-])c1cccc(-c2ccc(/C=N/n3c(-c4ccccc4)n[nH]c3=S)o2)c1,-1.1,94.0,7,92.0,-16.8,98.0,94.0,94.0,-13.6,96.0
CCc1ccc(NC(=O)N(CCN2CCOCC2)C2CCN(C(C)=O)CC2)cc1,0.6,95.0,21,98.0,.,99.0,101.0,96.0,1.7,99.0
CCCc1nnc(-c2ccc(OC)cc2)o1,5.3,102.0,12,101.0,-1.0,102.0,100.0,99.0,13.5,105.0
N#Cc1cnc(SCC(=O)c2ccccc2)nc1N,0.0,101.0,13,99.0,.,102.0,101.0,98.0,1.1,108.0
O=C(N/N=C/C=C/c1ccco1)c1cccc([N+](=O)[O-])c1,-0.2,103.0,3,96.0,.,103.0,100.0,101.0,7.9,103.0

# Compound profiles, as listed above. Screens in order: ABCB1 block	Rab7 wt modul	Avidin fluor	Rab2A wt mod	Pf gamet viab	Cdc42 wt	HRas wt GTP	Rac1 mut GTP	ABCG2 block	Rac1 wt modul
# O=C(Nc1ccncc1NC(=O)c1cccc([N+](=O)[O-])c1)c1cccc([N+](=O)[O-])c1 across the screens: 0.6	103.0	12	96.0	-20.9	97.0	98.0	97.0	8.2	101.0
# Cc1cccc(NC(=O)CSc2nc(C)c(Cc3ccccc3)c(=O)[nH]2)c1 across the screens: -0.2	92.0	13	90.0	-8.3	93.0	92.0	89.0	0.2	93.0

# (listing goes on)
SMILES,ABCB1 block,Rab7 wt modul,Avidin fluor,Rab2A wt mod,Pf gamet viab,Cdc42 wt,HRas wt GTP,Rac1 mut GTP,ABCG2 block,Rac1 wt modul
CCc1ccc(N2C(=O)C3ON(c4ccccc4)C(c4ccco4)C3C2=O)cc1 (stereo not given),0.6,?,11,?,3.6,?,?,?,2.6,?
FC(F)(F)c1cc(-c2ccc(Cl)cc2)nc(NCc2cccnc2)n1,1.6,103.0,11,104.0,.,106.0,103.0,99.0,8.4,106.0
C=CCOc1nc2c(c(=O)n(Cc3ccc(Cl)cc3)c(=O)n2C)n1C,1.0,97.0,10,95.0,.,99.0,98.0,98.0,5.4,95.0
COc1ccc(-c2nnc(SCCC(=O)O)n2C)cc1OC,0.3,101.0,8,101.0,.,105.0,103.0,102.0,1.0,106.0
CCCCn1nnnc1NCc1ccc(OC)c(OC)c1,0.9,100.0,19,101.0,-12.6,102.0,101.0,100.0,3.5,100.0
COc1ccccc1NC(=O)C1=C(C)Nc2nnnn2C1c1cccc(C)c1 (stereo not given),0.7,98.0,6,98.0,.,98.0,99.0,94.0,1.7,96.0
CCNC(=S)N/N=C/c1ccc(OCC(=O)Nc2ccc(OC)cc2)c(OC)c1,0.3,105.0,3,100.0,1.9,100.0,102.0,99.0,0.6,103.0
CCOC(=O)c1cc2occc2n1CC(=O)N1CCN(C(=O)c2ccco2)CC1,0.0,104.0,4,104.0,-19.3,106.0,104.0,103.0,0.0,107.0
Cc1cc(OCc2nc(-c3ccc(NC(=O)c4cccnc4)cc3)no2)ccc1Cl,0.0,107.0,18,107.0,18.1,104.0,104.0,102.0,0.5,104.0
Cc1c(/C=N/NC(=O)CNc2ccccc2)c2ccccn2c1C(=O)c1ccc(Cl)cc1,7.3,98.0,21,98.0,.,97.0,99.0,96.0,7.5,99.0
CCc1ccc(NC(=O)c2cnn3c(C(F)F)cc(C)nc23)cc1,-0.8,102.0,10,101.0,14.0,94.0,99.0,96.0,2.5,104.0
COc1ccc(/C=C2/SC(=O)N(CCC(=O)Nc3ccccc3)C2=O)cc1OC,-0.2,101.0,14,101.0,-14.1,100.0,101.0,99.0,-0.4,100.0
CN1CCN(c2oc(/C=C/c3ccccc3)nc2C#N)CC1,.,.,8,.,-4.5,.,.,.,.,.
O=C(c1ccccc1F)N1CCN(S(=O)(=O)c2ccc(S(=O)(=O)N3CCCCC3)cc2)CC1,.,101.0,6,100.0,14.6,103.0,101.0,99.0,.,105.0
CCc1ccc(C(C)NC(=O)c2ccc(F)cc2)cc1 (stereo not given),0.6,106.0,13,101.0,8.7,108.0,104.0,103.0,15.1,111.0
CCOC(=O)c1ccc(NC(=O)C2(c3ccc(OC)cc3)CCCC2)cc1,0.4,92.0,14,91.0,.,89.0,92.0,90.0,1.8,90.0
C/C(=N\NC(=O)c1ccc(NS(=O)(=O)c2cccs2)cc1)c1ccc(Cl)cc1,0.3,104.0,3,101.0,4.9,102.0,101.0,98.0,0.5,104.0
CN1CCNC(=O)C1CC(=O)NCCc1ccccc1F (stereo not given),0.1,102.0,5,98.0,-3.8,95.0,95.0,94.0,0.4,96.0
CCc1ccc(Nc2nc(N)nc(CSc3nnnn3-c3ccccc3)n2)cc1,0.3,94.0,29,97.0,3.1,101.0,100.0,99.0,1.5,101.0
O=C(N/N=C/c1ccc([N+](=O)[O-])cc1)c1cc(-c2ccc3c(c2)OCO3)n[nH]1,.,.,11,.,7.1,.,.,.,.,.
Cc1cccc(C)c1Nc1nnc(SCC(=O)Nc2sccc2C#N)s1,-0.2,104.0,1,98.0,-10.7,99.0,99.0,97.0,-2.7,98.0

# Not all compounds are listed; count on the stated rates, not on these rows.
